High-throughput results (PubChem)
KCNQ2 enhance: KCNQ2 (rat) channel potentiation; CHO-K1 KCNQ2, FluxOR thallium flux fluorescence; hits give high values; B-score at 10 µM; 0.54% of 310,000 active;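 active = fluorescence ratio B-score at least 3 SD of library B-scores, with initial fluorescence B-score within 3 SD, cut at about 5.3 in these data; same plate scores as AID 2156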;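 note: B-score of peak minus minimum over baseline fluorescence ratio after K+ and Tl+ stimulus; positive B-score means potentiation of KCNQ2 with more thallium influx and brighter signal; only the inactives scoring about 0 or higher are listed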
Target sequence (O88943 whole entry, looked up): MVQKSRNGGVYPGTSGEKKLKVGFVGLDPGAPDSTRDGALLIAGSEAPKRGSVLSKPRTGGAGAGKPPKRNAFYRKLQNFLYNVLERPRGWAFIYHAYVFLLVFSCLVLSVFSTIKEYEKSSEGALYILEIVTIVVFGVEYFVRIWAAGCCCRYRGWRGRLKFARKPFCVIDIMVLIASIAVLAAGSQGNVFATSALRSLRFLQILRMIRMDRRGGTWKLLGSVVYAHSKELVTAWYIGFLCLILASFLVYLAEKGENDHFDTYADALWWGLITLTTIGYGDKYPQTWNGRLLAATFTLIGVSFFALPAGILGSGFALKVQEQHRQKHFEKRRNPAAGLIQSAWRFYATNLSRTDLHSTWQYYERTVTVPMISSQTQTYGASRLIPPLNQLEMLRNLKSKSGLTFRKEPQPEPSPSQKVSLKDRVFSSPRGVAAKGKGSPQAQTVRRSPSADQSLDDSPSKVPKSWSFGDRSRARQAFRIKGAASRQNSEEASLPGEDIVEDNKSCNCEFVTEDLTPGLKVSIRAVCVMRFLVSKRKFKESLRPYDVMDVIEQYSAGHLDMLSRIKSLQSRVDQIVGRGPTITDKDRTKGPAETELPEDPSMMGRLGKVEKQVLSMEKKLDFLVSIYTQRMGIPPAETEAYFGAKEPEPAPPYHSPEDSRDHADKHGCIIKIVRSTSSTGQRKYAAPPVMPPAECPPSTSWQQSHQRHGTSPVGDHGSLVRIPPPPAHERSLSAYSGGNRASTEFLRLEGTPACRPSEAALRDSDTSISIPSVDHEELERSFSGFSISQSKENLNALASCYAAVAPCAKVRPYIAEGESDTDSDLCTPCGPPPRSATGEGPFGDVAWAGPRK
KCNQ2 enhance baseline: further read-out of KCNQ2 enhance, marked with its call; B-score; compound at 10 µM; measured here: initial fluorescence intensity artifact check;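 brightness before thallium and not channel activity; 0 = typical well and far values either way flag optical interference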
Numbers without * were called inactive. These rows are one share of the data; count on the stated rates, not on these rows.

Order of values – KCNQ2 enhance	KCNQ2 enhance baseline
- CCSc1nc2ccccc2n1CC(=O)N1CCCCC1
 : 0.93	1.61
- CCN(CC)S(=O)(=O)c1ccc(Cl)c(C(=O)NC2CCCC2)c1
 : 1.02	0.71
- O=C(Nc1ccc(Cl)cc1)c1ccc(CN2CCc3ccccc3C2)cc1
 : 0.63	-0.38
- COc1ccc2c(c1)nc(NCCO)n2C
 : 1.61	-1.13
- CNC(=O)[C@@]1(Cc2ccccc2)C=C[C@@H](C)N1C(=O)OC
 : 0.33	-0.12
- CN(Cc1ccccc1)C(=O)COc1cccnc1[N+](=O)[O-]
 : 0.33	-0.67
- Cc1cccc(NS(=O)(=O)c2cccc(C(=O)NCCCN3CCOCC3)c2)c1
 : 0.05	-0.3
- CCN(CC)S(=O)(=O)c1cc(C(=O)OCC(=O)Nc2cccc(S(=O)(=O)N(C)C)c2)ccc1F
 : 1.23	-2
- COc1cccc(CC(C(=O)Nc2cc(C)ccc2C)c2nn[nH]n2)c1OC (configuration not stated)
 : 0.53	-0.08
- COC(=O)CCN(C1CCCCC1)S(=O)(=O)c1ccc(S(=O)(=O)N2CCCCC2)cc1
 : 0.36	2.68
- O=C1c2ccccc2C(=O)N1CCCCn1c(=O)oc2ccccc21
 : 0.05	0.13
- CN(Cc1nc(-c2cccs2)no1)CC(O)c1ccccc1 (configuration not stated)
 : 1.04	-2.71
- Cc1ccc(N(C(=O)c2nsc(Cl)c2Cl)C(C(=O)NC2CCCC2)c2ccc(O)cc2)cc1C (configuration not stated)
 : 1.65	-0.14
- O=S(=O)(c1ccc(Cl)cc1)N1CCC(N2CCOCC2)CC1
 : 1	-0.05
- O=C(NCCCN1CCc2ccccc2C1)C1CCN(c2nnc(-n3cccc3)s2)CC1
 : 2.19	0.37
- COc1ccc(CCNS(=O)(=O)c2ccc(Cl)s2)cc1OC
 : 0.8	1.52
- CCc1nn(C(C)C(=O)Nc2cccc(C)c2C)c(=O)c2cc3occc3n12 (configuration not stated)
 : 0.25	-0.75
- COc1ccc(CCNC(=O)c2nnc(Cc3ccc(Cl)cc3)o2)cc1OC
 : 0.77	-0.48
- O=c1[nH]c2cc(Cl)ccc2c(O)c1-c1cccc(Oc2ccccc2)c1
 : 0.35	-0.63
- CCN(CC)S(=O)(=O)c1ccc(C)c(NC(=O)/C=C/c2cccs2)c1
 : 0.65	-2.43

(cont.)
Order of values – KCNQ2 enhance	KCNQ2 enhance baseline
- Cc1ccc(C)c(N(CC(=O)NCCc2ccccc2)C(=O)CCC(=O)Nc2ccccn2)c1
 : 0.18	-0.33
- O=S(=O)(c1ccccc1)N(CC1CO1)c1cccc2ccccc12 (configuration not stated)
 : 1.11	-0.36
- O=C(O)CCNC(=O)/C(=C/c1ccco1)NC(=O)c1ccco1
 : 0.56	0.27
- Cc1ccc(OCC(=O)Nc2nnc(S(=O)(=O)N3CCCCCC3)s2)cc1
 : 0.9	-0.36
- Cc1nn(C(C)C(=O)NCc2ccco2)c(C)c1[N+](=O)[O-] (configuration not stated)
 : 0.4	0.77
- COc1cccc(NC(=O)COC(=O)c2ccc(S(=O)(=O)NCc3ccco3)cc2)c1
 : 1.68	-2.29
- COc1ccc(OC)c(NC(=O)CCN2CCCCC2)c1
 : 0.56	0.68
- CC(C)(C)c1ccc(OCCCC(=O)NC2=NCCS2)cc1
 : 0.13	-0.53
- c1ccc(C2CC3CC(c4ccccc4)N2O3)cc1 (configuration not stated)
 : 1.32	-0.88
- COc1cccc(N(CC(=O)Nc2cccc(N(C)S(C)(=O)=O)c2)S(C)(=O)=O)c1
 : 1.07	-0.26
- Cc1c(N(CC(=O)O)S(=O)(=O)c2ccccc2)c(=O)n(-c2ccccc2)n1C
 : 0.51	0.59
- CN1CCN(c2ccc(CNS(=O)(=O)c3ccsc3)cc2)CC1
 : 0.14	0.14
- O=C(Nn1c(C2CCCCC2)nc2ccccc2c1=O)c1ccc([N+](=O)[O-])cc1
 : 0.79	0.47
- CC1CCCC(C)N1/N=C/c1ccccc1C(=O)O (configuration not stated)
 : 1.01	1.99
- Cc1ccccc1NC(=O)c1cccc(N2C(=O)C3C4CCC(C4)C3C2=O)c1 (configuration not stated)
 : 1.69	1.7
- O=C(Nc1cccc(-c2ccc3nncn3n2)c1)c1ccco1
 : 0.26	-0.67
- Cc1ccccc1C(=O)Nc1c(C(=O)N2CCN(C)CC2)cnn1-c1ccccc1
 : 0.04	-0.27
- CC1CCN(CCC(=O)N/N=C/c2ccc([N+](=O)[O-])cc2)CC1
 : 0.98	-0.48
- O=C1c2cc(S(=O)(=O)NCCO)ccc2-c2ccc(S(=O)(=O)NCCO)cc21
 : 0.71	0.02
- Cc1csc(NC(=O)CSc2nnc(-c3ccncc3)n2C)n1
 : 0.06	0.27

Copied from the results shown (two entries):
Order of values – KCNQ2 enhance	KCNQ2 enhance baseline
- Cc1ccc(C)c(N(CC(=O)NCCc2ccccc2)C(=O)CCC(=O)Nc2ccccn2)c1
 : 0.18	-0.33
- O=S(=O)(c1ccccc1)N(CC1CO1)c1cccc2ccccc12 (configuration not stated)
 : 1.11	-0.36

The listing continues:
Order of values – KCNQ2 enhance	KCNQ2 enhance baseline
- Cn1c(=O)[nH]c(=O)c2c1nc(Br)n2CCCc1ccccc1
 : 0.06	-1.71
- CCNC(=O)COC(=O)CCNC(=O)c1cccc(C)c1
 : 0.31	-1.09
- CCOC(=O)C(Cc1ccccc1)c1ccnc2ncnn12 (configuration not stated)
 : 0.13	-0.32
- N#Cc1c(/N=C/N2CCCC2)oc(-c2ccccc2)c1-c1ccccc1
 : 0.39	-0.57
- CCCC(=O)Nc1nc2ccc(NC(=O)c3c(F)c(F)c(OC)c(F)c3F)cc2s1
 : 0.33	0.02
- Cc1ccc(F)c(CNC(=O)C2CCC(=O)N(CCN3CCOCC3)C2)c1F (configuration not stated)
 : 1.24	-0.75
- Cc1c(C(=O)N2CCC3(CC2)CC(=O)c2ccccc2O3)cccc1[N+](=O)[O-]
 : 0.29	1.36
- Cc1cnc([N+](=O)[O-])n1CCOC(=O)NC(=O)c1ccc(F)cc1
 : 0.3	-1.7
- COCCOC(=O)N/C=C\c1nc2ccccc2c(=O)[nH]1
 : 0.49	0.73
- COc1cc(C(=O)NC2CCN(Cc3nnnn3Cc3cccs3)CC2)cc(OC)c1OC
 : 0.03	-1.65
- COc1ccc(CCNC(=O)C2CCN(S(=O)(=O)c3ccc(OC)c(OC)c3)CC2)cc1
 : 0.47	0
- Cc1noc(C)c1CSc1nnc2cc(C)c3ccccc3n12
 : 0.32	0.01
- Cc1ccc(NC(=O)C(C)OC(=O)c2ccc(NC(=O)CC#N)cc2)cc1S(=O)(=O)N1CCOCC1 (configuration not stated)
 : 2.25	0.95
- Cc1ccccc1C(=O)NC1CCN(CC(=O)NCc2ccccc2)CC1
 : 0.7	0.25
- COc1cccc(C(=O)NC2=NCCS2)c1
 : 1.45	-0.24
- NC1=NC(=O)C(Cc2cccc(Cl)c2Cl)S1 (configuration not stated)
 : 0.47	-0.06
- Cc1ccc(NC(=O)Cc2nnc(SCC(=O)c3ccc(Br)cc3)n2C)cc1
 : 0.71	1.12
- Cc1ccc(S(=O)(=O)Cc2ccc(C(=O)N3CCCC3)o2)cc1
 : 0.94	-0.73
- O=C(CO/N=C/c1ccccc1O)NNC(=O)c1ccccc1Cl
 : 1.03	0.69
- CSc1ccc(NC(=O)Nc2cccn(Cc3ccccc3F)c2=O)cc1
 : 0.28	-0.05

Continuation:
Order of values – KCNQ2 enhance	KCNQ2 enhance baseline
- CC(NC(=O)CCCCCCN1C(=O)c2ccccc2C1=O)c1ccc2c(c1)CCCC2 (configuration not stated)
 : 5.32*	-2.09*
- O=c1[nH]c(C2CCN(S(=O)(=O)c3ccc(C(F)(F)F)cc3)CC2)nc2c1nnn2Cc1ccccc1
 : 0.26	1.58
- CCCc1nc(N2CCCC2)c(C#N)c2c1CCCC2
 : 1.2	0.3
- CCOC(=O)C1CCCN(C(=O)c2c(-c3ccccc3Cl)noc2C)C1 (configuration not stated)
 : 0.84	0.27
- COc1ccc(N2C(=O)c3ccccc3NC2c2cccnc2)cc1 (configuration not stated)
 : 1.7	0.38
- C=C(C)c1cccc(C(C)(C)NC(=O)NC2CCN(Cc3ccccc3)CC2)c1
 : 2.27	-0.07
- CC(C)(C)C1CCC2(CC1)C(C#N)=C(SCC(=O)Nc1ccccc1)NC(=O)C2C#N (configuration not stated)
 : 0.25	0.03
- CN(CC(=O)Nc1ccc(F)cc1)C(=O)CSc1nncs1
 : 0.84	-0.53
- CCOc1ccc(NC(=O)NC(=O)N(C)S(=O)(=O)c2ccc(C)cc2)cc1
 : 0.5	-0.71
- Cn1c(C(=O)NCC2CCCO2)cc2c(=O)n(C)c3ccccc3c21 (configuration not stated)
 : 2	0.23
- Nc1nc(C23CC4CC(CC(Cl)(C4)C2)C3)cs1
 : 0.68	-0.42
- CCNC(=S)N(Cc1ccco1)Cc1cc2cc(OCC)ccc2[nH]c1=O
 : 0.01	-0.31
- Cc1ccc(NC(=O)C2CCN(S(=O)(=O)c3ccc4c(c3)oc(=O)n4C)CC2)cc1
 : 1.34	1.99
- CC1CCN(S(=O)(=O)c2ccc3c(c2)c(=O)c(C(=O)NC2CCCC2)cn3C)CC1
 : 0.54	-1.08
- CC(C)(C)c1cc2ncnc(N3CCCCC3)c2s1
 : 0.61	0.04
- CCOC(=O)CCCCC(=O)c1[nH]c(=O)[nH]c1Cn1ccnc1
 : 0.37	0.06
- COC(=O)c1ccc(C(=O)OC)c(NC(=O)C(C)(C)C)c1
 : 0.8	0.59
- Cc1cccc(N(C(=O)Cn2nnc3ccccc32)C(C(=O)NC(C)(C)C)c2ccsc2)c1C (configuration not stated)
 : 1.79	0.09
- Cc1cc(NC(=O)/C=C/c2ccc(Br)cc2)no1
 : 0.6	0.89
- Cc1ccc2c(c1)cc(CN(Cc1ccc3c(c1)OCO3)C(=O)c1cnccn1)c1nnnn12
 : 1.46	-0.89

The final three compounds of the section before lead into the next:
Order of values – KCNQ2 enhance	KCNQ2 enhance baseline
- Cc1cccc(N(C(=O)Cn2nnc3ccccc32)C(C(=O)NC(C)(C)C)c2ccsc2)c1C (configuration not stated)
 : 1.79	0.09
- Cc1cc(NC(=O)/C=C/c2ccc(Br)cc2)no1
 : 0.6	0.89
- Cc1ccc2c(c1)cc(CN(Cc1ccc3c(c1)OCO3)C(=O)c1cnccn1)c1nnnn12
 : 1.46	-0.89
- Cc1ccc(NC(=O)CSc2nc(C)c(C)c(C)n2)c([N+](=O)[O-])c1
 : 0.01	-0.04
- NC(=O)C1(NC(=O)[C@@H]2CC3(CC(c4cccc(NC(=O)c5cc([N+](=O)[O-])cc([N+](=O)[O-])c5)c4)=NO3)CN2C(=O)c2ccccc2)CC1 (some centres not stated)
 : 0.24	0.68
- COc1ccc(Cc2nn3c(-c4ccccc4Br)nnc3s2)cc1
 : 0.02	1.14
- C/C(=N/NC(=O)c1cccs1)c1ccc(NC(=O)COc2ccc(Cl)cc2Cl)cc1
 : 0.37	0.79
- O=C(Nc1ccc(N2CCN(Cc3ccccc3Cl)CC2)cc1)c1cccnc1
 : 0.36	-0.24
- CN(C)N1C(=O)CC(N2CCCCC2)C1=O (configuration not stated)
 : 2.04	-0.18
- O=C(COCC(=O)N/N=C/c1ccccc1F)N/N=C/c1ccccc1F
 : 0.08	1.16
- CCCc1nnc(NC(=O)CCC(=O)NCc2ccccc2)s1
 : 0.7	-0.48
- CN1CCC(=O)N(CCOc2ccccc2)CC1
 : 0.71	-1.14
- Cc1[nH]n(-c2ccccc2)c(=O)c1C=NCCc1ccccc1
 : 0.14	1.96
- CC(=O)CCc1ccc2oc(C(=O)O)c(C)c2c1
 : 0.95	0.46
- O=C(NCCC1=CCCCC1)C1CCN(S(=O)(=O)c2ccccc2)CC1
 : 0.8	2.01
- COc1ccc(-c2nn(CCC#N)cc2/C=N/O)cc1
 : 1.41	0.03
- CC(NC(=O)CCNC(=O)N1CCn2c1nc1ccccc12)c1ccccc1 (configuration not stated)
 : 0.33	-0.4
- Cc1cc(NC(=O)C2CC(c3cccc(Br)c3)=NO2)no1 (configuration not stated)
 : 1.52	-1.62
- CCCc1nc2oc3c(NCCOCCO)ncnc3c2c2c1COC(C)(C)C2
 : 0.04	-0.56
- CCOC(=O)C1=NN(c2ccccc2)C(c2ccccc2)CC1=O (configuration not stated)
 : 0.09	0.22
- COc1ccc(-c2nnc(SCC3CCCO3)n2C)cc1 (configuration not stated)
 : 0.07	2.14
- CCc1ccc(C(=O)Nc2nc(C)cs2)s1
 : 0.69	0.27
- C=CCn1c(-c2cccc(OC)c2)n[nH]c1=S
 : 0.03	-0.01

Later entries.
Order of values – KCNQ2 enhance	KCNQ2 enhance baseline
- NC(=O)[C@H]1CC2(CC(c3cccc(NC(=O)COc4ccc(Cl)cc4)c3)=NO2)CN1C(=O)[C@H]1CCC(=O)N1 (some centres not stated)
 : 1.86	0.61
- Cc1nn(-c2ccccc2)c(C)c1NC(=O)COc1ccc(Cl)cc1Cl
 : 0.48	0.01
- O=C(Nc1ccc2c(c1)oc1ccc(S(=O)(=O)N3CCCC3)cc12)C1CC1
 : 0.04	-1.81
- O=C(Nc1cccc(C(=O)O)c1)/C(=C\c1ccco1)NC(=O)c1ccc(Br)o1
 : 0.57	0.74
- COc1cc(C#N)ccc1OCC(=O)Nc1ccc(C)c(S(=O)(=O)N2CCOCC2)c1
 : 1.68	-1.33
- O=C(N/N=C/c1ccco1)c1ccc(NC(=O)c2ccccc2Cl)cc1
 : 0.3	0.94
- Cc1ccc(CNC(=O)c2cc(=O)c3ccc(C)cc3o2)cc1
 : 1.39	-1.29
- Cn1c(N)c(C(=O)COC(=O)C2CCC(C(C)(C)C)CC2)c(=O)n(C)c1=O (configuration not stated)
 : 4.46	-0.63
- CC(C)Cn1c(N2CCN(C(=O)/C=C/c3ccccc3)CC2)nc2ccccc21
 : 0.14	-2.22
- CC12CC(NC(=O)N1CCc1ccccc1)c1cc(Cl)ccc1O2 (configuration not stated)
 : 0.19	1.18
- CN(C)S(=O)(=O)c1ccc(NC(=O)COC(=O)c2ccccn2)cc1
 : 0.05	-1.64
- CC(C)(C)c1cc(C(=O)N2CCc3ccccc32)ccn1
 : 0.01	1.01
